Screens (PubChem)
VDR inhibitor: vitamin D3 receptor (human) inhibition; Potency, µM, without a hit: max response, negative = inhibition, hits mostly inhibitors; AID 504847; VDR-SRC2-3 peptide fluorescence polarization, 2 h; 400,000 compounds, 0.93% hits; active means well fitted inhibition curve with a large enough effect; inconclusive means small, poorly fitted or top-dose-only effect, or another doubt; inactive means no such curve, though single readings can be large or run the other way; further: series mostly up to about 120 µM
Target sequence (P11473 whole entry, looked up): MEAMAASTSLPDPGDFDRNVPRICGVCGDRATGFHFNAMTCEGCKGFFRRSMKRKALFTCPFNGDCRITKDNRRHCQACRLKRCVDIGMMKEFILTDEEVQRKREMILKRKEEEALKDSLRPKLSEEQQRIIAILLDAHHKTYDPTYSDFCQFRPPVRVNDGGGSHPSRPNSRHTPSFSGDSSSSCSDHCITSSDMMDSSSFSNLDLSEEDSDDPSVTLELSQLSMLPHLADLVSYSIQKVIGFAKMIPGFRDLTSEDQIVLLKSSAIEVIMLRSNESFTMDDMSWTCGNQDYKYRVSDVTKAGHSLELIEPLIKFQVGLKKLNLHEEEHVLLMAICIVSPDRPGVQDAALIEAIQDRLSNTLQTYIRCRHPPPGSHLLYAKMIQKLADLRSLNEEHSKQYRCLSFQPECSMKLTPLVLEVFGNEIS
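Reagent solutions, kept cold and dark, are dispensed first; compounds are then pinned in at 23 nl, plates briefly spun, and incubated 2 h at ambient temperature. Inhibition of VDR–SRC2-3 peptide binding is read by fluorescence polarization.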
Active calls of the source: *; u = inconclusive; & = joins results of further samples. On the % scale 0 is the no-effect control and ±100 the full control effect; potency means the concentration at half of the fitted maximal effect. These rows are one share of the data. The share of hits here may be higher or lower than overall.

SMILES	VDR inhibitor
COc1ccc(N=c2scc(C)n2CCCN2CCCC2=O)cc1	-8.4%
O=C(NC(=S)N1CCN(c2nc(-c3ccccc3)cs2)CC1)c1cccnc1	-13.3%
O=C1CCN(Cc2ccc(Br)cc2)CCN1CCO	-14.4%
CC(=O)N1CCc2cc(S(=O)(=O)NC(Cc3ccccc3)C(=O)O)ccc21 (stereo not given)	7.3%
CC(C)(C)OC(=O)NCc1ccc(CNC(=O)c2ncn(Cc3ccccc3)c2C(=O)NCc2ccc(CNC(=O)OC(C)(C)C)cc2)cc1	3.2%
Cc1cn(CC(=O)NCCc2ccccn2)c(=O)[nH]c1=O	-6.6%
N#C/C(=C\c1ccc(-c2cc(Cl)ccc2Cl)o1)C(=O)Nc1ccccc1C(=O)O	3.2%
CCc1ccc(CNC(=O)c2nn(C)c3c2CS(=O)(=O)c2ccccc2-3)cc1	1.2%
CCOc1ccc(C(=O)N2CCCC(c3nc(-c4ccc(C)o4)no3)C2)cc1 (stereo not given)	2.2%
CC(C)(C)c1ccc(C(=O)NC(=S)NNC(=O)c2cccs2)cc1	-11.5%
Cc1cc(C)c(NC(=O)CSc2nnc(SCC(=O)Nc3c(C)cc(C)cc3C)n2N)c(C)c1	20.0%
COc1ccc(NC(=O)CNS(=O)(=O)c2ccc3nc(C)sc3c2)c(OC)c1	-6.4%
CCOc1cccc(/C=N/NC(=O)c2cccnc2)c1O	2.1%
CCC(=O)Nc1nc(C)c(-c2csc(Nc3ccc(C(=O)O)cc3)n2)s1	-15.4%
COc1ccc(CC(NC(C)=O)C(=O)N2CCN(C(=O)N(C(C)C)C(C)C)CC2)cc1 (stereo not given)	8.0%
CCSc1nc2c([nH]1)c(=O)n(C)c(=S)n2C	22.4µM*
CCOC(=O)C1CCN(C(=O)CCNS(=O)(=O)c2ccc(C)cc2)CC1	3.0%
O=C(NCc1nnnn1-c1ccc(F)c(F)c1)C(=O)c1c[nH]c2ccccc12	15.5%
CCNC(=S)NCc1ccc2c(c1)OCO2	-16.3%
CC(=O)N(Cc1ccccc1C)c1cccc(C)c1C	3.7%
CCN(CC)CCCN(CC(=O)N(C)Cc1ccccc1)C(=O)c1ccc([N+](=O)[O-])cc1	0.5%
COc1ccc(NC(=O)C(CCSC)NC(N)=O)cc1Cl (stereo not given)	11.2%
O=c1cc(-c2ccc(O)cc2)oc2c(-c3c(O)cc(O)c4c(=O)cc(-c5ccc(O)cc5)oc34)c(O)cc(O)c12	2.3%
CCOC(=O)C1CCN(S(=O)(=O)c2ccc3[nH]c(=O)ccc3c2)CC1	-12.8%
Nc1cc2[nH]c(=O)c3ccccc3c2cc1Br	-4.9%
CCOc1ccc(C)cc1S(=O)(=O)n1ccc(C)n1	-11.7%
CCOCCc1nn2c(=O)cc(COC(=O)CNC(=O)c3ccc(C(C)(C)C)cc3)nc2s1	-4.0%
CCN(CC)C(=O)COn1c(SCC(=O)N(CC)CC)nc2ccccc2c1=O	-1.9%
O=C(O)CSCC(=O)N1CCCCC1	0.7%
S=C(NC1CC1)SCc1ccco1	3.1%

The last 4 records of the part before open the next one.
SMILES	VDR inhibitor
CCOCCc1nn2c(=O)cc(COC(=O)CNC(=O)c3ccc(C(C)(C)C)cc3)nc2s1	-4.0%
CCN(CC)C(=O)COn1c(SCC(=O)N(CC)CC)nc2ccccc2c1=O	-1.9%
O=C(O)CSCC(=O)N1CCCCC1	0.7%
S=C(NC1CC1)SCc1ccco1	3.1%
COc1cc(C)c(S(=O)(=O)n2ccc(C)n2)cc1C	-7.1%
COc1ccc(N2CC(NC(=O)COc3ccccc3C)CC2=O)cc1OC (stereo not given)	-0.6%
O=C(c1ccc(F)cc1)N(Cc1ccco1)C1CCS(=O)(=O)C1 (stereo not given)	-8.4%
Cc1ccc(C(C(=O)NC2CCCC2)N(Cc2ccccc2)C(=O)c2csnn2)o1 (stereo not given)	-8.1%
CCCc1ccc2oc(C(=O)NCCN3CCCC(O)C3)c(C)c2c1 (stereo not given)	2.2%
CCOC(=O)c1[nH]c(C)c(C(=O)OCC(=O)NCc2ccc(OC)cc2)c1C	1.8%
CC(C)N(Cc1ccccc1)C(=O)COc1ccccc1	-13.5%
Cc1cc2c(n1-c1ccc(C(=O)NCC(C)c3ccccc3)cc1)CCCC2 (stereo not given)	16.1%
COc1ccc(S(=O)(=O)NCc2ccc(C(=O)O)cc2)cc1	-9.8%
O=C(NC1CCCCC1)c1ccc(S(=O)(=O)NCc2cccnc2)cc1	0.0%
Cc1ccc(NC(=S)N(Cc2ccco2)C2CCN(C(C)C)CC2)cc1	-17.2%
COc1ccc(OC)c(NC(=O)C23CCC(C)(C(=O)O2)C3(C)C)c1 (stereo not given)	-8.7%
COc1cccc(NC(=O)CN(C)CC(=O)Nc2ccc3c(c2)OCO3)c1	-8.3%
Cn1ncc2c(Nc3cccc4ccccc34)ncnc21	-7.2%
COc1ccc(-c2cc(=O)oc3c(C)c(OCC(=O)Nc4cccnc4)ccc23)cc1	-10.0%
CCCCCc1c(O)nc(SCC(=O)NCC2CCCO2)[nH]c1=O (stereo not given)	-4.4%
O=C(CCCN=C1NS(=O)(=O)c2ccccc21)Nc1ccc(Cl)cc1	-15.9%
Cc1ccc(NS(=O)(=O)c2cc(OCC(N)=O)c(C)cc2Cl)cc1C	11.5%
Cc1ccc(N2CCN(C(=O)c3cccs3)CC2)cc1C	8.8%
COc1ccc(C2C(C(C)=O)=C(C)Nc3ncnn32)cc1[N+](=O)[O-] (stereo not given)	-2.4%

Of the compounds above, 3 have a tert-butyl group.
SMILES	VDR inhibitor
CC(C)(C)OC(=O)NCc1ccc(CNC(=O)c2ncn(Cc3ccccc3)c2C(=O)NCc2ccc(CNC(=O)OC(C)(C)C)cc2)cc1	3.2%
CC(C)(C)c1ccc(C(=O)NC(=S)NNC(=O)c2cccs2)cc1	-11.5%
CCOCCc1nn2c(=O)cc(COC(=O)CNC(=O)c3ccc(C(C)(C)C)cc3)nc2s1	-4.0%

(listing goes on)
SMILES	VDR inhibitor
C/C(=N\NC(=O)CCC(=O)Nc1ccc(C)c(C)c1)C1CC1	-10.6%
Nc1ccc(C(=O)CC(=O)Nc2ccc(Cl)cc2)cc1	7.2%
CC(=O)c1ccc(N2CCN(C(=S)Nc3cccc(F)c3)CC2)cc1	20.3%
COCCCNC(=S)Nc1cccc(SC)c1	3.6%
O=C(O)/C=C\C(=O)Nc1ccccc1C#Cc1ccc(Br)cc1	u
Brc1cccc(-c2cnc3n2CCCCC3)c1	11.7%
COc1ccc(Cl)cc1NC(=O)NN1CCN(C)CC1	-9.8%
COc1ccc(S(=O)(=O)N2CCN(c3ccccn3)CC2)cc1OC	-7.9%
CC(C)CNC(=O)C(=O)NCC1CCCN1S(=O)(=O)c1cccs1 (stereo not given)	-17.3%
Cc1cc(C)cc(NCCC#N)c1	14.2%
Cc1sc(NC(=O)C2C3C=CC(C3)C2C(=O)O)c(C(N)=O)c1-c1ccc(C(C)C)cc1 (stereo not given)	-25.5%
C/C(CS(=O)(=O)c1ccc(Cl)cc1)=N/NC(N)=S	-23.5%
CC1CCCCN1C(=O)/C=C/c1ccccc1[N+](=O)[O-] (stereo not given)	7.6%
O=[N+]([O-])c1cc(F)cc(F)c1Nc1ccc(F)cc1	-13.0%
Cn1c(=O)n(C)c2cc(S(=O)(=O)NCC(=O)O)ccc21	-28.8%
CS(=O)(=O)c1ccccc1-c1nc(-c2ccc(C(F)(F)F)cc2)no1	13.7%
COc1ccc2ccc(=O)oc2c1CC=C(C)C	-8.8%&-25.9%
CCCOc1ccc(Br)cc1/C=N/NC(=O)c1cc(OC)c(OC)c(OC)c1	9.7%
O=C1C2C3C=CC(C3)C2C(=O)N1/N=C/c1cn(Cc2ccc(F)cc2)c2ccccc12 (stereo not given)	-9.9%
Cc1cc(C)n(C(=O)CNC(=O)c2ccccc2Br)n1	0.1%
O=C(NN=Cc1cc(Cl)ccc1[N+](=O)[O-])c1ccco1	-10.2%
O=C(O)c1cccc(CSc2nc(-c3ccc(Cl)cc3)cc(C(F)(F)F)n2)c1	u
Cc1ccccc1CN1CCNC1=O	13.2%
O=c1c2ccccc2ncn1-c1ccc([N+](=O)[O-])cc1Cl	6.3%
COc1nnc(-c2ccc(N3CCCCC3)c(NC(=O)c3ccccc3)c2)c2ccccc12	-13.1%
COC(=O)c1ccc(NC(=O)CC2C(=O)N(c3ccc(C)cc3)C(=O)N2Cc2ccc(OC)cc2)cc1 (stereo not given)	3.6%
O=C(O)c1ccccc1C(=O)Nc1ccccn1	-3.7%
CCCc1nc2c(C)cc(C)cc2c(N)c1CC	-0.4%
Cn1c(=O)c2c(nc3n2CC(O)CN3c2ccc(O)cc2)n(C)c1=O (stereo not given)	0.2%
COc1ccccc1NC(=O)Cn1c(=O)n(-c2cccc(Cl)c2)c(=O)c2c1c1cc(C)ccc1n2C	6.6%
C=C(C)C1CC=C(C)/C(=N/Nc2ccccc2[N+](=O)[O-])C1 (stereo not given)	-7.9%
COc1ccc(NC(=O)N2CCN(C(=O)c3ccco3)CC2)c(OC)c1	-8.0%
COCCn1c(SCC(=O)Nc2ccc(NC(C)=O)cc2)nc2ccccc2c1=O	-20.8%
Cc1cc(NS(=O)(=O)c2ccc(NC(=O)/C=C/c3cccc(Cl)c3)cc2)no1	-19.6%
NC1(C#Cc2ccc3c(=O)c4ccccc4sc3c2)CCCCC1	-18.8%
Cc1ccc(C(=O)NC(=S)Nc2ccc(CN3CCOCC3)cc2)cc1	15.8%
Cc1cc(-c2n[nH]c(=S)n2-c2ccc(C)c(C)c2)no1	0.3%
CC(=O)N1CCN(c2ccc(NC(=O)c3ccc(Cl)c(Cl)c3)cc2)CC1	-4.3%
CCCCCCCCc1ccc(-c2ccc(C(=O)O)cc2)cc1	3.4%&-2.6%&1.9%
O=C(CSc1nc2ccccc2c(=O)[nH]1)N1CCN(c2ccccc2)CC1	11.2%
O=[N+]([O-])c1cc(-c2nc(-c3ccccc3)no2)ccc1N1CCCC1	8.9%
CCOC(=O)C1CCN(Cc2ccc(O)c3ncccc23)CC1	3.8%
CC1=NN(C(=O)COc2ccccc2)C(O)(c2ccccc2)C1 (stereo not given)	6.8%
COc1ccc(CCNC(=O)c2cc(-c3ccc4c(c3)OCO4)on2)cc1OC	-11.9%
COC(=O)C(C)Sc1nc2c(cnn2-c2ccc(C)cc2)c(=O)[nH]1 (stereo not given)	4.5%
O=C(c1ccc2c(c1)OCCO2)N1CCN(c2ccccn2)CC1	-15.5%
COc1ccc(CCN(C(=O)C(F)(F)F)C(C(=O)NC2CCCCC2)c2ccc(C)s2)cc1OC (stereo not given)	6.4%
CCC(C(=O)Nc1cccc(C(=O)O)c1C)c1ccccc1 (stereo not given)	2.5%
Cn1c(SCc2ccc(Cl)cc2Cl)nc(C(F)(F)F)cc1=O	8.9%
COc1ccc(C2CC(=O)c3cc(-c4nc(-c5ccc(C)cc5)cs4)c(=O)[nH]c3C2)cc1 (stereo not given)	6.3%
Continuation:
SMILES	VDR inhibitor
Cc1cc(C)c(/C=N/NC(=O)c2nnn(-c3nonc3N)c2COc2ccc(F)cc2)c(C)c1	-4.7%
Cc1ccncc1C(=O)O	0.0%
O=C(N1CCC(n2nc(-c3ccccc3)oc2=O)CC1)C1(c2ccc(Cl)cc2)CC1	-2.2%
CCCCCCOc1ccc(C2C(=O)N(C3CCCCC3)CC(=O)N2CCCC)cc1 (stereo not given)	3.4%
CN1C(=O)C(CCC(=O)O)NC1=S (stereo not given)	1.3%
O=C(Nc1nnc(-c2ccccc2Cl)o1)c1ccc(S(=O)(=O)N2CCCCCC2)cc1	-3.1%
Cc1cc(/C=N/NC(=O)c2ccsc2)c(C)n1-c1cnccn1	-2.9%
O=C(NCC1CCCO1)c1cccc(S(=O)(=O)Nc2ccc(SC(F)F)cc2)c1 (stereo not given)	-14.0%
NC(=O)c1ncn([C@@H]2O[C@H](CNC(=O)[C@H](N)CSCc3ccccc3)[C@@H](O)[C@H]2O)n1	-16.2%
Cc1cc(C)cc(N2C(=O)CS(=O)(=O)C23C(=O)N(C)c2ccccc23)c1 (stereo not given)	-2.3%
Cc1cc(C)cc(C(=O)OCC(=O)N2CCCCCC2)c1	-8.9%
N#CC1=C(N)C2=CCCC[C@H]2[C@H](c2cccc(F)c2)C1(C#N)C#N	u
C[C@H](NC(=O)c1nc[nH]c1C(=O)NC1CCN(C(=O)OC(C)(C)C)CC1)C(=O)OC(C)(C)C	-15.4%
CCOC(=O)C1CCN(S(=O)(=O)c2ccc3c4c(cccc24)C(=O)N3)CC1	0.8%
COc1ccccc1NC(=S)N1CCC(C(=O)c2ccc(F)cc2)CC1	-3.9%
O=C(CSc1nnc(CNC(=O)c2cccs2)o1)Nc1ccc(F)cc1F	-15.1%
Cc1c(CCC(=O)O)c(=O)oc2cc(OCc3cccc(Cl)c3)ccc12	6.3%
COc1cc(C)ccc1OCCSc1nc2ccc(NC(=O)c3cccs3)cc2s1	-5.8%
CNC(C)C#Cc1ccc2oc3cccc(OC)c3c(=O)c2c1 (stereo not given)	-8.5%
COc1cc(/C=N\NC(=O)c2ccc(-c3ccccc3)cc2)ccc1OCC(N)=O	1.7%
O=C(NCc1cccnc1)c1cc2nc(-c3ccc4c(c3)OCO4)cc(C(F)(F)F)n2n1	u
CN1C(=O)CC(N2CCN(CC(=O)N3CCCC3)CC2)C1=O (stereo not given)	-14.4%
Cc1cc(NC(=O)c2ccc3c(c2)OCO3)no1	-18.2%
COc1cc2c(-c3ccccc3O)nc3c(c(C)nn3-c3ccccc3)c2cc1OC	-2.9%&2.4%
CCOc1cc(/C=C2\SC(=Nc3ccc(CC)cc3)NC2=O)ccc1OCC(=O)O	-6.9%
CCC1(C)Cc2c(sc(NC(=S)NC(=O)c3ccccc3)c2C#N)CO1 (stereo not given)	-16.3%

A section taken from the entries so far:
SMILES	VDR inhibitor
O=C(NCc1cccnc1)c1cc2nc(-c3ccc4c(c3)OCO4)cc(C(F)(F)F)n2n1	u
CN1C(=O)CC(N2CCN(CC(=O)N3CCCC3)CC2)C1=O (stereo not given)	-14.4%
Cc1cc(NC(=O)c2ccc3c(c2)OCO3)no1	-18.2%
